Source: PubChem BioAssay
S aureus helic: blocks Staphylococcus aureus DNA helicase; inhibition, %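 (tested at about 80 µM)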; actives 0.05% (n = 120,000); purified S. aureus helicase, fluorescence unwinding assay; about half of the hits fall short of the stated cut;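 active means both duplicates at 50% or more, or one of them with a favoured structure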;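 further: 0% = mean of negative control wells and 100% = mean of positive control wells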
MgrA-DNA mod: S. aureus MgrA-DNA binding modulation | fluorescence polarization | inhibition, %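 (about 10 µg/mL by stock and volumes)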 | actives 0.13% (n = 84,000) | AID 602314;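 active means above 50% in either of two replicates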;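 further: 0% = protein plus DNA without compound and 100% = DNA alone without protein; higher means less MgrA bound to DNA so lower polarization; one replicate is shown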
The depositor's hits bear a star; . = not tested or not shown; & = joins results of further samples.

SMILES	S aureus helic	MgrA-DNA mod
O=c1cc(-c2ccccc2)[nH]n1-c1nc2ccccc2s1	23	5.8
N#Cc1cccc(CSc2nnc(-c3ccccc3F)n2C2CC2)c1	25	.
C=CCNC1CC(=O)N(c2ccccc2)C1=O (configuration not stated)	-2	-2.0
CCOC(=O)C1CCN(C(=S)c2ccccc2)CC1	17	26
CCOC(=O)c1c(C=O)oc2c(C)cc(OC(=O)c3ccc(C(=O)c4ccccc4)cc3)c(Br)c12	.	3.8
O=C(COc1ccccc1)N1CCN(c2cccc(Cl)c2)CC1	5	5.2
Cc1cc2c(cc1Br)NC(=O)C21C(C#N)=C(N)Oc2n[nH]c(C)c21 (configuration not stated)	1	.
O=C(C1CC1)N(c1ccccc1)C1C=CS(=O)(=O)C1 (configuration not stated)	1	.
O=[N+]([O-])c1cc(C(F)(F)F)ccc1N1CCCC1	.	-0.3
Cc1cccc(C2=NC(C(F)(F)F)(C(F)(F)F)c3c(n(C)c(=O)n(C)c3=O)N2)c1	2	-1.4
CCOc1ccc(NC(=O)CSc2ncnc3c2oc2ccccc23)cc1	15	.
CN(CCOc1ccccc1)C(=O)NCc1ccccc1	0	.
COc1ccc(CNC(=O)C2C3CCC(O3)C2C(=O)O)cc1 (configuration not stated)	-15	-1.0
O=S1(=O)CCC(N2CCSC2=Nc2ccc(Cl)cc2)C1 (configuration not stated)	12	.
O=C1C=C(Nc2ccccc2)CC(c2ccc(Cl)cc2)C1 (configuration not stated)	.	-1.6
CN(C)/C=N/c1ncc(C(F)(F)F)cc1Cl	.	-3.8
Oc1c(CN2CCOCC2)cc(CN2CCOCC2)cc1CN1CCOCC1	-3	3.0
O=C(CCc1[nH]c2ccccc2c1Sc1ccccc1)N(CCO)CCO	0	2.8
COc1ccc(C(=O)Nc2ccc(-c3nc4cc(C)cc(C)c4o3)cc2)cc1OC	-17	4.3
COC(=O)CSc1nnc(-c2ccccc2)n1Cc1ccc2c(c1)OCO2	-4	.

Whole records, looked up by structure.
`COC(=O)CSc1nnc(-c2ccccc2)n1Cc1ccc2c(c1)OCO2` is entered as S aureus helic = -4; MgrA-DNA mod = .
`CN(C)/C=N/c1ncc(C(F)(F)F)cc1Cl` is entered as S aureus helic = .; MgrA-DNA mod = -3.8

(continued)
SMILES	S aureus helic	MgrA-DNA mod
COc1ccc(C(C(=O)OCCN(C)C)c2ccccc2)cc1 (configuration not stated)	17	-1.5
Cc1nc2cccc[n+]2c(-c2ccccc2)c1C	-6	-0.6
CSc1cccc(NC(=S)NCCCO)c1	-9	.
Cc1cc(C(=O)COC(=O)c2ccc(CN3CCCC3=O)cc2)c(C)n1C	-2	.
CCOC(=O)C1CCN(C(=O)c2cc(C(C)(C)C)nn2Cc2ccccc2)CC1	-12	.
N=C1C(c2nc3ccccc3s2)=C(O)CN1C1CCCCC1	16	-1.1
O=C(CN1CCC(N2CCCCC2)CC1)Nc1ccc2c(c1)OCCO2	4	16
Cn1c(CC(=O)Nc2ccccc2)nnc1SCCOc1ccccc1	4	-0.9
O=C(Nc1ccccc1)N(Cc1nc(-c2ccccc2)no1)C1CCCCC1	-1	-2.3
O=C(C1CC1)N1CCc2cc(Br)cc(S(=O)(=O)N3CCCCC3)c21	22	.
Brc1ccc2ncnc(N3CCCC3)c2c1	10	1.0
O=C(CSc1ncccc1C(=O)O)NC1CCCc2ccccc21 (configuration not stated)	-2	.
COc1ccc(Cn2c(C)csc2=Nc2cccnc2)cc1OC	5	.
Cc1cc2c(cc1S(=O)(=O)N1CCCc3ccccc31)OCCN2C	-17	.
O=C(NCc1nc(-c2ccc(C(F)(F)F)cc2)no1)C1CCCCC1	.	3.2
CC(C)(C(=O)c1ccccc1)/[N+]([O-])=C/c1ccc(F)cc1	29	.
CCCCN(C)Cn1ncn(C)c1=S	8	.
Cc1ccc2cccc(NC(=S)NC(=O)c3ccn(C)n3)c2n1	13	-0.8
COc1ccc(-n2cc3ccsc3c2)cc1	.	-2.5
CC(C)(C)NC1=C(n2nnc3ccccc32)C(=O)c2ccccc2C1=O	-26	.
O=c1[nH]c(O)c(/C=C2\C=Nc3ccccc32)[nH]1	.	-0.8
O=C(CSc1ccc2ccccc2c1)NCCc1ccc(O)c(O)c1	12	-0.9
Cc1ccc2occ(CN(C)CCc3ccccn3)c(=O)c2c1	-2	0.6
Cc1csc(NC(=O)CCCC(=O)O)n1	-16	.
CC(C)ON1C(=O)C2C3C=CC(O3)C2C1=O (configuration not stated)	9	0.1
Cn1c(Cn2ccnc2)nc2ccccc21	18	.
COC(=O)c1c(COC(=O)C2=COCCO2)nc2ccccc2c1C	1	.
CC(C)n1nc(CC(=O)O)c2ccccc2c1=O	3	-3.3
CN(C(=O)COC(=O)c1cccnc1N1CCCC1)c1c(N)n(Cc2ccccc2)c(=O)[nH]c1=O	-13	.
CN(C(=O)COC(=O)c1cccc2ccccc12)C1CCS(=O)(=O)C1 (configuration not stated)	20	.

Some of the entries above in another layout:
| Molecule | S aureus helic | MgrA-DNA mod |
| --- | --- | --- |
| Cc1ccc2cccc(NC(=S)NC(=O)c3ccn(C)n3)c2n1 | 13 | -0.8 |
| Cc1csc(NC(=O)CCCC(=O)O)n1 | -16 | . |
| Cn1c(CC(=O)Nc2ccccc2)nnc1SCCOc1ccccc1 | 4 | -0.9 |
| O=C(COc1ccccc1)N1CCN(c2cccc(Cl)c2)CC1 | 5 | 5.2 |
| O=C(Nc1ccccc1)N(Cc1nc(-c2ccccc2)no1)C1CCCCC1 | -1 | -2.3 |
| Cc1cc2c(cc1S(=O)(=O)N1CCCc3ccccc31)OCCN2C | -17 | . |

Later entries
SMILES	S aureus helic	MgrA-DNA mod
O=C(O)c1ccc2c(c1)CCO2	.	3.5
O=C(c1cccc2c1NC(c1ccc([N+](=O)[O-])cc1)C1CC=CC21)N1CCOCC1 (configuration not stated)	.	2.7
Cc1ccc(NC(=O)CC2CCC2)cc1C	3	-3.2
COc1cccc(CN(CCCN2CCOCC2)C(=O)c2cc3sccc3n2Cc2ccccc2)c1	0	-1.4
Cc1cc(C(=O)COC(=O)c2ccc(Cl)s2)c(C)n1-c1ncn[nH]1	3	.
CC(C)CCNC(=O)C1CCCN(S(=O)(=O)N2CCC3(CC2)OCCO3)C1 (configuration not stated)	-26	.
Cc1ccc(CNc2ccc3c(c2)ncn3C(C)C)cc1	36	.
Cc1ccc(-n2c(C)cc(/C=C3/C(=O)N(C4CCCCC4)C(=S)N3C)c2C)cc1	-2	1.5
Cc1noc2ncnc(SCc3ccc(Cl)cc3)c12	.	-1.8
Cc1nn(-c2ccccc2)c2sc(C(=O)Nc3ccccc3)cc12	-16	2.9
CC(C)(C)NC(=O)c1ccc(C(C)(C)C)cc1	17	.
CC(C)c1cc(CN2CCN(c3ccccc3)CC2)c(O)c(CN2CCN(c3ccccc3)CC2)c1	21	-0.7
Cc1ccc2nc(SCC(=O)N3CCc4ccccc43)[nH]c2c1	-13	-0.3
FC(F)(F)c1ccnc(N2CCN(Cc3c[nH]c4ccccc34)CC2)c1	.	-1.1
COC(=O)c1ccc(CSc2nc(CN3CCOCC3)nc3sc4c(c23)CCCC4)o1	4	.
CCc1ccc(NC(=O)CSc2nc3nccnc3c(=O)n2CCC(C)C)cc1	4	-0.7
O=C(C1Cc2ccccc2CN1S(=O)(=O)c1cccs1)N1CCCCC1 (configuration not stated)	18	3.0
Cc1ccc(S(=O)(=O)NCC(=O)OCc2cc(Cl)cc3c2OCOC3)cc1	9	.
COCCN(Cc1ccco1)C(=O)c1noc2c1COc1ccc(C)cc1-2	5	0.8
CNC(=O)COc1ccccc1O	-21	-0.4
CCOc1ccc2[nH]c(=S)sc2c1	6	5.8
O=C(O)C(CCCCN1C(=O)C2C3C=CC(C3)C2C1=O)N1C(=O)C2C3C=CC(C3)C2C1=O (configuration not stated)	.	0.3
OC(Cc1cccnc1)(c1ccccc1)c1ccc(Cl)cc1 (configuration not stated)	.	3.6
N=c1n(Cc2ccccc2)c2ccccc2n1CC(O)c1ccc(Br)cc1 (configuration not stated)	13	.
COc1ccc2c(C)nc(/N=C(N)/N=C(\C)c3ccccc3C(=O)O)nc2c1	12	3.2
CCN(CC(=O)Nc1ccc(S(=O)(=O)N(C)C)cc1)CC(=O)Nc1ccccc1C(F)(F)F	-6	.
CN1c2ccccc2N(C)C1c1cccn1C	4	.
Cc1ccc(-n2ccc(=O)c(C(=O)Nc3ccc(S(N)(=O)=O)cc3)n2)cc1	12	.
O=C(c1ccc(Br)cc1)c1n[nH]c(C(=O)c2ccccc2)c1O	14	.
Cc1ccc(-c2nc3n(n2)C2(CCCCC2)[C@@H]2CCCC[C@@H]2N3C(=O)c2cccs2)cc1	-18	.
CC1CC(C)CN(C(=O)C2c3ccccc3C(=O)N(C)C2c2cn(C)c3ccccc23)C1 (configuration not stated)	-3	-0.6
CCOC(=O)c1sc(NC(=O)c2sc3ccccc3c2Cl)nc1-c1ccccc1	.	-3.1
C[N+]1(CCCCC[N+]2(C)CCCC2)CCCC1	.	-0.1&-0.1
Cc1ccc(NC(=O)c2ccc(C(F)(F)F)cc2)c(OC(=O)c2ccc(C(F)(F)F)cc2)c1	.	2.0
Cc1ccc(OCc2nc(SCc3c(C)noc3C)n[nH]2)cc1	-9	.
Cc1c(C)c(C)c(CSCc2n[nH]c(=S)n2-c2ccc(F)cc2)c(C)c1C	.	0.1
CCOC(=O)/C(C#N)=C/c1c(C)nn(Cc2ccccc2)c1C	-13	.
COC(=O)Nc1ccc2ncn(C)c(=O)c2c1	4	.
CC(C)C(C)NC(=O)CSc1nc(N)cc(N)n1 (configuration not stated)	-8	.
COc1ccc(C2C(C#N)=C(N)OC3=C2C(=O)CC(C)(C)C3)cc1COc1ccc([N+](=O)[O-])c(C)c1 (configuration not stated)	.	-0.1
CC(C)(C)c1ccc(C(=O)NCC(=O)O)cc1	10	-4.0
CN(C)c1ccc(CN2CCCCCC2)cc1	11	-1.3
CCc1ccc(NC(=O)/C=C/C(=O)O)cc1	.	0.2
CCCOc1ccc(C(C)(N)C(=O)O)cc1 (configuration not stated)	2	.
CCC(=O)Nc1sc(Cc2ccccc2)c(C)c1C(=O)OC	9	3.3
COC(=O)CSc1nc2ccccc2s1	9	4.8
O=C(NO)c1ccc(Br)s1	-10	.
C=CCSc1nnc(-c2cc(C(C)(C)C)nn2Cc2ccc(F)cc2)n1C	-2	.
COc1ccccc1N/C=C(\C#N)c1nc2ccccc2[nH]1	-4	-1.5
CCOC(=O)C1CCCN(C(=O)CC)C1 (configuration not stated)	12	0.1
Following part
SMILES	S aureus helic	MgrA-DNA mod
CN(C)C=Nc1c([N+](=O)[O-])cc(C(F)(F)F)cc1[N+](=O)[O-]	.	2.4
FC(F)(F)Oc1ccc(-c2n[nH]c(=S)n2-c2ccc(Cl)cc2)cc1	.	1.2
Oc1ccc(C2SCCS2)cc1	-6	.
N#CC1(C#N)[C@@H]2c3ccccc3C=CN2[C@@H](C(=O)c2ccccc2)[C@@H]1c1cccs1	-1	-1.1
COc1ccc(NC(=O)CCCc2nnc3n(C(C)C)c(=O)c4sccc4n23)cc1OC	-18	.
COc1ccc(NC(=O)c2sc(=S)n3c2[nH]c(=O)c2sccc23)cc1OC	-9	.
CC(C)CNC(=O)c1cccc2ccccc12	12	1.2
O=C(NCc1cccs1)c1cccc(S(=O)(=O)N2CCCCC2)c1	-1	1.2
COc1c(Cl)cc([N+](=O)[O-])c(OC)c1C(N)=O	.	-0.5
Cc1ccc(-n2c(SCC(=O)c3ccc(C#N)cc3)nc3ccccc32)cc1	5	.
Cc1cc(CNC(=S)Nc2ccc(F)cc2F)nn1C	14	-2.0
O=S(=O)(c1ccc(Sc2ccc(S(=O)(=O)N3CCCC3)cc2)cc1)N1CCCC1	-27	.
Cc1ccc2nc3ccc(N4CCCCCCC4)nn3c(=O)c2c1	28	.
O=C1CC(Cc2ccccc2)C(=O)N1Cc1ccc2c(c1)OCO2 (configuration not stated)	20	-0.8
COCCNC(=O)C1=CC(c2ccc(C)cc2)=NS(=O)(=O)N1C	-15	.
CCC(CC)C(=O)Nc1nnc(SCC(=O)Nc2ccc(F)cc2)s1	17	.
O=C(CSc1nc2ccccc2[nH]1)Nc1ccc(C(=O)O)cc1	9	.
CCCCc1c(O)nc(SCCN(C)C)n(-c2ccccc2)c1=O	6	1.1
CCc1ccc(NC(=O)C2CCCN(C(=O)c3cnn(-c4ccccc4)c3-n3cccc3)C2)cc1 (configuration not stated)	-20	.
Brc1ccc(-c2ccc3ccccc3n2)cc1	.	-7.1
CC1CCCC(C)N1C(=O)CN1CCC(O)(c2ccccc2)CC1 (configuration not stated)	8	-29
CC(C)(Oc1ccc(Cl)cc1)C(=O)NCC1CCCO1 (configuration not stated)	12	-5.1
CCN1C(=O)/C(=C2/C=Cc3ccccc3N2CC)SC1=S	13	2.4
C=CCOC1(c2ccccc2)OC(=O)c2ccccc21 (configuration not stated)	10	1.9
Cc1cc(N2CCOCC2)nc2ccc(N)cc12	-22	.
Cc1c(C(=O)CSc2n[nH]c(=O)n2C2CC2)sc2ccc(Cl)cc12	.	0.7
O=C(c1cccs1)N1CCSC1=S	2	5.8
CN(Cc1ccccc1)C(=O)CSc1ccc(Br)cc1	5	-2.2
ClC(Cl)=Cc1nc2ccccc2s1	-24	.
N#CCC(=O)Nc1ccc(S(N)(=O)=O)cc1	24	.
Cc1ccc(Sc2ccc(N)cn2)cc1	.	-2.2
CSC1=C(C#N)C(=O)NC(c2c(Cl)cccc2Cl)S1 (configuration not stated)	-2	.
CCS(=O)(=O)Nc1ccc(C(=O)Nc2ccc3c(c2)OCCO3)cc1	0	-3.3
CCN(CC)c1nc(N2CCN(CCO)CC2)nc2ccccc12	2	-7.4
COc1cccc(C(=O)O/N=C(\N)Cc2ccc(OC)c(OC)c2)c1	-4	.

Some of the compounds tested. The share of hits here may be higher or lower than overall.
